Source: PubChem BioAssay (National Center for Advancing Translational Sciences (NCATS))
SARS PLpro yeast: blocks SARS-CoV papain-like protease in a yeast assay. Potency, µM (series often up to 32.9 µM), without a hit: top-dose activity, positive = growth rescue. actives 0.19% (n = 330,000). S. cerevisiae expressing SARS-CoV PLpro, growth rescue; control for the full effect not named in the record; further: 0% is about no effect; nearly all actives have a fitted effect of over 55% in size; growth read by luminescence after 48 h
RE007 growth inh: less growth of the S. pombe RE007 Vpr strain. Potency, µM (highest dose often 92.2 µM), inactives show at the top dose activity change, negative = less growth. actives 0.21% (n = 360,000). AID 651644. S. pombe RE007 Vpr strain, BacTiter-Glo ATP luminescence, 24 h; control for the full effect not named in the record; active = well fitted falling curve with a large enough effect; inconclusive = small, poorly fitted or top-dose-only effect; inactive = no such curve, though single readings can be large or run the other way;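 further: on the % scale 0 is the no-effect control and ±100 the full control effect; nearly all actives have a fitted effect of over 50% in size; the assay follows cell death caused by Vpr and the record does not say whether a fall means rescue or toxicity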
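Fission yeast strain RE007, carrying one chromosomally integrated HIV-1 vpr copy, was seeded at OD 0.01 in PMG+AL medium with 23 nL pinned compound. After 24 h at 30 °C and 99% humidity, viability was read by BacTiter-Glo luminescence.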
NS1 inh: inhibitors of influenza NS1 protein function | S. cerevisiae slowed by influenza A NS1, growth recovery by OD600 | Potency, µM (series often up to 46.1 µM), without a hit: at the highest dose activity, positive = more growth | actives 0.4% (n = 270,000) | AID 2326; further: actives are rising curves; nearly all actives have a fitted effect of over 50% in size
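OD600 was taken as the measure of yeast growth restored by compound in an NS1-expressing S. cerevisiae strain. Cells had been washed out of glucose medium and diluted 1:100 into galactose -URA medium, pH 6.0.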
StopGo reporter: FMDV 2A StopGo reporter, luciferase signal. actives 1.2% (n = 410,000). human cells with a luciferase reporter of 2A StopGo recoding; control for the full effect not named in the record. Potency, µM (highest dose often 57.9 µM), for the others: at the top dose signal change, negative = less light; active = well fitted falling curve with a large enough effect; inconclusive = small, poorly fitted or top-dose-only effect; inactive = no such curve, though single readings can be large or run the other way; tested in HEK293T cells; further: on the % scale 0 is the no-effect control and ±100 the full control effect; nearly all actives have a fitted effect of over 45% in size; luciferase light after 4 h
Lassa entry inh: inhibitors of Lassa virus binding or cell entry | actives 1.2% (n = 300,000) | Potency, µM (top dose mostly 37.9 µM), for the others: top-dose activity change, negative = inhibition, actives largely listed as inhibitors | Lassa virus pseudotype entry inhibition, cell reporter; control for the full effect not named in the record; active means well fitted inhibition curve with a large enough effect; inconclusive means small, poorly fitted or top-dose-only effect, or effect the other way; inactive means flat fitted curve, though single readings scatter; tested in HEK293 cells; further: on the % scale 0 is the no-effect control and ±100 the full control effect; nearly all actives have a fitted effect of over 50% in size; luciferase read-out
Cruzain noTriton: cruzain (T. cruzi) inhibition without detergent; actives 2.3% (n = 200,000); Potency, µM, for inactives: max response, negative = inhibition, usual class: inhibitors; AID 1476; purified cruzain, Z-FR-AMC fluorescence, no detergent; active means well fitted curve in the direction sought with a large enough effect; inconclusive means small, poorly fitted or top-dose-only effect, or another doubt; inactive means no such curve, though single readings can be large; an effect the other way counts as inactive or inconclusive;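 further: plate controls were enzyme without inhibitor for no effect and buffer without enzyme for full effect; nearly all actives have a fitted effect of over 40% in size; top concentration of the series not given in the record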
Target sequence (P25779 123-467 limits assumed): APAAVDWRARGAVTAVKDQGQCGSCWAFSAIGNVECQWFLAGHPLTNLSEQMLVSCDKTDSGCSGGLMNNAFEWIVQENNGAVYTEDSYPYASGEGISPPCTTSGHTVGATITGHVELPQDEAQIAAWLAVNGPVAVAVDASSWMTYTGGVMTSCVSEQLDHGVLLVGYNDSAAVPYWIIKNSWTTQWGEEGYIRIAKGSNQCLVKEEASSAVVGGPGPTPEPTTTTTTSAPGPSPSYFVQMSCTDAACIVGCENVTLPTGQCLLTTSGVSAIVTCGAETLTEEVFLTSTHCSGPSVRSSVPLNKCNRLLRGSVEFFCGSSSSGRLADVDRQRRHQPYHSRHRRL
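Purified cruzain at 1.5 nM, pre-incubated 15 min with compound at room temperature in 100 mM sodium acetate pH 5.5, 5 mM DTT, 0.00005% Triton X-100. Reaction started with 2 uM Z-FR-AMC; AMC fluorescence increase over 60 s gives rate.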
Marburg entry inh: blocks Marburg virus binding to or entry into cells; actives 1.8% (n = 300,000); Marburg virus pseudotyped entry inhibition, cell reporter; control for the full effect not named in the record; about a third of the inactives were read at about 46 µM; Potency, µM (top dose mostly 37.8 µM), without a hit: at the highest dose activity change, negative = inhibition, hits mostly inhibitors; active = well fitted inhibition curve with a large enough effect; inconclusive = small, poorly fitted or top-dose-only effect, or effect the other way; inactive = flat fitted curve, though single readings scatter; tested in HEK293 cells; about a fifth of its hits are not listed in these tables; further: on the % scale 0 is the no-effect control and ±100 the full control effect; luciferase read-out
Cruzain inh Det: blocks cruzain activity in presence of Triton detergent | P25779 | purified cruzain, Z-FR-AMC fluorescence, 0.01% Triton | Potency, µM, for inactives: max response, negative = inhibition, hits mostly inhibitors | actives 0.43% (n = 200,000) | AID 1478; active means well fitted curve in the direction sought with a large enough effect; inconclusive means small, poorly fitted or top-dose-only effect, or another doubt; inactive means no such curve, though single readings can be large; an effect the other way counts as inactive or inconclusive;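 further: plate controls were neutral wells for no effect and buffer without enzyme for full effect; nearly all actives have a fitted effect of over 40% in size; top concentration of the series not given in the record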
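Steps: dispense cruzain (1.5 nM final) in acetate buffer pH 5.5 with DTT and 0.01% Triton X-100; pin-transfer compounds; incubate 15 min RT; add Z-FR-AMC (2 uM final); read fluorescence every 30 s, using the 60 s intensity change.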
An asterisk follows results filed as active; ? = inconclusive; . = no result given; & = joins results of further samples; [ ] = dose if it differs, or a comment. Unless noted, the call rests on the fitted dose curve; in most records, active means well fitted rising curve with a large enough effect; inconclusive means small, poorly fitted or top-dose-only effect; inactive means no such curve, though single readings can be large or run the other way. Potency means the concentration at half of the fitted maximal effect. Rows are unselected; about 4.5% have a hit in one of these screens.

SMILES	SARS PLpro yeast	RE007 growth inh	NS1 inh	StopGo reporter	Lassa entry inh	Cruzain noTriton	Marburg entry inh	Cruzain inh Det
CCCCn1c(N)c(N(CC)C(=O)c2ccc(C#N)cc2)c(=O)[nH]c1=O	-1.3%	7.7%	-5.0%	10.6%	4.1%[46.1 µM]	.	?	.
CCc1cccc(NC(=O)c2ccc(Br)o2)c1	-5.2%	?	-48.4%	59.6%[activator]	11.4%	-3.4%	?	-5.2%
COc1ccc(CNC(=O)Cn2c(=O)oc3cc(S(=O)(=O)N4CCCCCC4)ccc32)cc1	.	.	.	-5.0%	?	-2.5%	.	-7.0%
CNCCOc1ccccc1C(C)(C)C	4.5%	-5.6%	-4.9%	-5.1%	8.2%	4.8%	?	3.3%
CCN1C(=O)[C@H]2[C@@H](c3ccc(Cl)cc3)N3C(=O)CN(CC4CC4)C(=O)[C@@]3(C)[C@H]2C1=O	0.9%	2.3%	-28.1%	-13.0%	.	.	.	.
CCc1ccc(NC(=O)CSCc2ccc(C(=O)O)cc2)cc1	1.0%	1.9%	0.6%	-7.2%	.	.	.	.
Cc1cc(OCC(=O)NCCc2nc3ccccc3[nH]2)cc(C)c1Cl	.	.	.	-19.8%	-6.2%[46.1 µM]	4.4%	.	8.91µM*
O=C(NCC1CCCO1)C1CC(=O)N(c2ccccc2)C1 (centres undefined)	1.6%	27.2%	-3.5%	-6.7%	8.4%[46.1 µM]	.	0.9%[46.1 µM]	.
Cc1nonc1CN(C)C(=O)CC1C(=O)NCCN1Cc1ccccc1C(F)(F)F (centres undefined)	-1.9%	-15.6%	3.3%	-4.7%	-1.1%[46.1 µM]	.	10.5%[46.1 µM]	.
CN(CCc1ccccn1)C(=O)CCC1CCCN(Cc2ccccc2OC(F)F)C1 (centres undefined)	0.7%	-14.3%	0.7%	19.3%	-4.9%[46.1 µM]	.	?	.
CCN1CCSc2ccc(C(=O)NCc3ccc(OC(C)C)cc3)cc21	-3.2%	-0.4%	9.5%	0.0%&-12.4%	.	-10.0%	5.0%[46.1 µM]	1.4%
CCc1ccccc1NC(=O)CSc1nncn2c1cc1oc(C)cc12	.	.	.	-2.8%	26.5%[46.1 µM]	-4.6%	.	-7.5%
Cc1ccc(OCC(=O)NNC(=O)[C@@H]2CCCC[C@@H]2C(=O)O)c(Br)c1	3.4%	-7.8%	18.5%	5.0%	.	.	.	.
Cc1ccc(S(=O)(=O)N2CCC(C(=O)Nc3cc(C(F)(F)F)ccc3N3CCOCC3)CC2)cc1C	-5.2%	2.2%	.	-18.4%	-1.1%	.	?	.
CCCNC(=O)c1c(NC(=O)c2ccccc2)sc2c1CCC(C(C)(C)C)C2 (centres undefined)	.	.	.	1.1%	-8.7%[46.1 µM]	-13.8%	-2.6%[46.1 µM]	-0.2%
CC(=O)N1CCc2cc(Br)cc(S(=O)(=O)N3CCC(C(=O)O)CC3)c21	16.2%	15.8%	-1.2%	-10.7%	?	.	-9.1%[46.1 µM]	.
C/C(=N/NC(=O)CCc1ccccc1)c1ccco1	-0.7%	-4.7%	-3.7%	-15.5%	-1.2%	.	17.7%	.
CCCN(CCC)Cc1c(C(=O)N/N=C/c2ccco2)nnn1-c1nonc1N	5.6%	2.7%	3.7%	22.7%	?	.	-24.1%[46.1 µM]	.
CC1CCCCN1C(=S)NCCc1ccccc1 (centres undefined)	-27.0%	-5.4%	-11.2%	46.7%[activator]	20.6%	?	?	-9.0%
O=C(c1ccccc1)N1CCN(Cc2ccccc2C(F)(F)F)CC1	-3.3%	-7.4%	.	-26.4%	-3.9%	.	-9.8%[46.1 µM]	.
CC(C)[C@H](NC(=O)Nc1ccc(Oc2ccccc2)cc1)C(=O)O	0.5%	-5.5%	5.0%	21.7%	13.6%	-11.1%	15.7%	0.8%
O=C(O)CC12CC3CC(C1)CC(n1ncc(NCC4CCCO4)c(Cl)c1=O)(C3)C2 (centres undefined)	-1.0%	-17.5%	1.4%	-12.2%	.	.	.	.
COc1ccc(OC)c(NC(=O)CCCN2C(=O)C3C4C=CC(C4)C3C2=O)c1 (centres undefined)	6.2%	1.3%	3.5%	-0.2%	-7.0%	-2.4%	0.1%	5.0%
CS(=O)(=O)Nc1cccc(C2=NN(C(=O)CCC(=O)O)C(c3cccs3)C2)c1 (centres undefined)	4.4%	5.5%	1.6%	-5.2%	.	.	.	.
O=C(CN1CCN(c2ccccc2)CC1)Nc1ccc(OCc2ccccc2)cc1	-5.6%	?	-50.4%	0.0%	?	15.6%	?	-0.8%
O=C(Nc1nnc(CCc2ccccc2)s1)c1ccccc1F	0.1%	1.8%	-58.5%	41.0%[activator]	-14.8%	.	3.0%	.
O=C(NCc1cccc2[nH]ccc12)C1CCC(=O)N(CCc2ccc(Cl)cc2)C1 (centres undefined)	-10.9%	19.4%	11.5%	-15.9%	-20.2%	.	14.6%	.
O=C(CN(Cc1ccc(F)cc1)C(=O)CCC(=O)Nc1nccs1)NCC1CCCO1 (centres undefined)	-1.3%	-13.0%	3.9%	7.9%	?	.	6.2%[46.1 µM]	.
Cc1ccc2c(=O)cc(C(=O)Nc3sc4c(c3C(N)=O)CCCC4)oc2c1	.	.	.	-11.6%	11.3%[46.1 µM]	-2.8%	2.7%[46.1 µM]	-3.1%
COCc1cc(=O)n2[nH]cc(-c3ccccc3)c2n1	5.2%	7.0%	-2.8%	15.4%	15.2%	.	-1.4%	.
COCCCN1C(=O)C(=O)/C(=C(/O)c2ccc3c(c2)CC(C)O3)C1c1cccnc1 (centres undefined)	0.7%	-3.2%	0.3%	9.7%	14.4%	-12.9%	7.8%&7.8%	-1.6%
O=C(NC(=S)Nc1ccccc1N1CCOCC1)c1ccc([N+](=O)[O-])cc1	1.8%	-7.3%	9.4%	0.0%	-28.4%	8.9%	-22.1%	-8.7%
CCOC(=O)c1ccc(NC2(c3ccccc3)C(=O)c3ccccc3C2=O)cc1	.	.	.	-9.5%	?	-9.2%	.	-9.3%
COCCNc1nc2c(c(=O)n(Cc3ccc(OC)cc3)c(=O)n2C)n1C	1.4%	-9.0%	-47.1%	?	-1.4%	7.9%	-11.9%&-11.9%	-3.3%
COc1ccc(CNc2ncnc3c2c(-c2ccccc2)cn3-c2ccccc2)cc1	.	.	.	?	-4.4%[46.1 µM]	6.4%	.	1.1%
O=C(CC1CCCC1)NCCS(=O)(=O)N1CCN(c2ccccc2F)CC1	2.0%	-5.2%	.	-10.0%	?	.	8.0%	.
COc1ccccc1OCCNC(=O)c1ccccc1C	-1.8%	2.4%	3.5%	50.0%[activator]	8.3%	-3.0%	?	2.2%
COCCNCC#CCOc1ccc(OC)cc1	-1.8%	-8.1%	3.8%	.	-7.4%	1.8%	7.0%	11.8%
O=C(CCc1nc(-c2ccccc2Cl)no1)NC1CCCC1	-3.2%	-1.3%	-2.2%	4.3%	.	.	.	.
COc1ccc(CC(=O)Nc2ccc(-c3noc(COc4ccccc4C)n3)cc2)cc1	5.0%	12.5%	3.5%	-21.5%	-21.6%	?	-7.7%	-2.6%
CCOc1ccc(CC(=O)NCCc2csc3nc(-c4ccccc4F)nn23)cc1	.	.	.	-8.7%	?	24.3%	.	-3.9%
CC(C)C(C)(C#N)NC(=O)CSc1nnc(-c2ccncc2)n1Cc1ccccc1 (centres undefined)	-1.6%	9.4%	-6.4%	3.5%	-25.8%	10.9%	?	3.9%
Cc1ccccc1NC(=S)C1=C(O)c2sccc2N(C)S1(=O)=O	-9.7%	-19.5%	1.3%	2.5%	13.4%	-14.2%	2.8%[46.1 µM]	-7.1%
CC(=O)Nc1ccc(S(=O)(=O)Nc2nnc(Cc3ccc(Cl)cc3)s2)cc1	1.6%	-2.1%	28.6%	9.3%	13.7%	.	-2.3%[46.1 µM]	.
Cc1ccnc(NC(=O)CCCc2c[nH]c3ccccc23)c1	2.6%	-4.3%	5.3%	11.4%	0.4%[46.1 µM]	.	10.6%[46.1 µM]	.

An excerpt from above, reduced to Marburg entry inh, RE007 growth inh and Lassa entry inh.
compound,Marburg entry inh,RE007 growth inh,Lassa entry inh
COCCNc1nc2c(c(=O)n(Cc3ccc(OC)cc3)c(=O)n2C)n1C,-11.9%&-11.9%,-9.0%,-1.4%
COc1ccc(CNc2ncnc3c2c(-c2ccccc2)cn3-c2ccccc2)cc1,.,.,-4.4%[46.1 µM]
O=C(CC1CCCC1)NCCS(=O)(=O)N1CCN(c2ccccc2F)CC1,8.0%,-5.2%,?
COc1ccccc1OCCNC(=O)c1ccccc1C,?,2.4%,8.3%

Next part
SMILES	SARS PLpro yeast	RE007 growth inh	NS1 inh	StopGo reporter	Lassa entry inh	Cruzain noTriton	Marburg entry inh	Cruzain inh Det
O=S(=O)(c1ccc(Br)cc1)N1CCn2cccc2C1c1ccc(Br)cc1 (centres undefined)	.	.	.	?	-10.0%[46.1 µM]	?	.	-2.1%
S=P(NC1CCCCC1)(N1CC1)N1CC1	-1.6%	-9.6%	0.3%	-20.9%	.	.	.	.
CN(C)S(=O)(=O)c1cc(NC(=O)C[N+]23CCN(CC2)CC3)ccc1Cl	-27.3%	3.9%	10.5%	-21.6%	1.3%	10.2%	-2.2%	1.1%
Cc1cc(NCCCN2CCOCC2)n2nc(C)c(-c3ccc(F)cc3)c2n1	-11.5%	?	-6.9%	-18.9%	0.0%	-1.9%	?	2.3%
